# Methyltransferases = Primary Screen for Target Class Profiling of Small Molecule Inhibitors of Methyltransferases | AID 1745853, 2022 | 25,000 tested, 3.9% active | calls only at 40 µM | purified enzyme, MTase-Glo SAH luminescence; stronger effect = lower value; active = -50% or lower on at least one of six enzymes; inconclusive = the cases between; inactive = as a rule above -30% on all six;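 also: enzymes were COMT GAMT GNMT HNMT NNMT and PNMT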
#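 Each enzyme was reacted with SAM and its substrate, with compounds tested once at 40 uM; SAH formed was read by MTase-Glo luminescence.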
# Calls only; i = inactive; ? = inconclusive; + = active, no number. % is scaled to controls: 0 for no effect and ±100 for the full control effect. Only part of the results is shown; the hit share may differ from the screen's.
SMILES	Methyltransferases
CCOc1ccc(CCN2C(=O)c3ccc(-c4ccccc4)n3CC2(C)C(=O)NC2CCCC2)cc1 (stereo not given)	i
CC[C@@]1(O)CC2CN(CCc3c([nH]c4ccccc34)[C@](C(=O)OC)(c3cc4c(cc3OC)N(C)C3[C@@](O)(C(N)=O)[C@H](O)[C@]5(CC)C=CCN6CC[C@@]43[C@@H]65)C2)C1 (stereo not given in full)	?
Cc1ccc(-c2nnn3c2nc(NCc2ccccc2)c2ccccc23)cc1	i
COc1ccc(-c2c(-c3cc(C(=O)O)ccn3)ncn2C)cc1	?
CCc1ccccc1N1C(=O)Cn2cccc2C1C(=O)NC1CCCCC1C (stereo not given)	i
C=C1C(OC(C)=O)CCC2(C)CC3(O)OC(=O)C(C)=C3CC12 (stereo not given)	i
CCNC(=O)N1CCC(Cc2ccc(C(=O)O)cc2)CC1	i
N#Cc1cccc(-c2cn3c(n2)N(C(=O)c2ccsc2)CCC3)c1	?
O=C(c1nccc2ccccc12)N1CCc2c(nc(-c3ccccc3)[nH]c2=O)C1	i
CCCCN1C(=O)c2cc3ccc(OC)cc3n2CC1(C)C(=O)NC1CCCC1 (stereo not given)	i
CCC[C@@H]1C[C@@H](C(=O)N[C@@H]([C@H]2O[C@H](SC)[C@H](O)[C@@H](O)[C@H]2O)[C@@H](C)O)N(C)C1	?
O=C1CN(C(=O)c2cccc(C(F)(F)F)c2)CC(OCc2cccnc2)CN1CC1CCOCC1 (stereo not given)	i
COc1cccc(COC2CN(CCc3ccccc3)C(=O)CN(C(=O)CN3CCOC3=O)C2)c1 (stereo not given)	i
CCCNC(=O)N1CCn2cccc2C1C(C)C (stereo not given)	i
CCc1ccc(C(=O)COC(=O)C(Cc2c[nH]c3ccccc23)NC(=O)c2ccc(CC)cc2)cc1 (stereo not given)	i
CCCCN1C(=O)c2cc(C(=O)Nc3ccc(Cl)cc3C)nn2CC1(C)C(=O)NC1CCCC1 (stereo not given)	i
O=C(NC1CCCCC1)c1ccc2c(=O)nc3c(-c4cccc(F)c4)n[nH]n3c2c1	i
CCC(C)NC(=O)c1ccc2c(=O)n(C(C)C)c3nn(CC(=O)NC4CCCC4)c(=O)n3c2c1 (stereo not given)	i
CCC(C)NC(=O)c1ccc2c(=O)n(C)c3nn(CC(=O)NC(C)C)c(=O)n3c2c1 (stereo not given)	i
Cc1noc(C)c1[S+](=O)([O-])N1CCC2(CC1)Cc1ccccc1NC2=O	i
COc1ccc(N2C(=O)c3cc4occc4n3CC2(C)C(=O)NC2CCCCCC2)cc1Cl (stereo not given)	i
O=C(c1cccc(OC2CN(C3CCCC3)C2)c1)N1CCCC1	i
CN(C)Cc1nnc(C2CCN(Cc3cnc(-c4ccccn4)nc3)CC2)n1C	i
C[C@@H]1CC[C@]2(C(=O)O)CC[C@]3(C)C(=CCC4[C@]5(C)C(CC[C@]43C)C(C)(C)[C@@H](O)[C@H](O)[C@@H]5O)C2[C@]1(C)O (stereo not given in full)	i
CCn1ncnc1C(C)NC(=O)Cn1nc(-c2ccccc2)n(CC)c1=O (stereo not given)	i
CC1=CC[C@@]2(C)CC[C@@](O)(C(C)C)[C@@H]2[C@@H](O)C1	i
Cc1ccc(C(=O)C(C)n2nc3n(C)c(=O)c4ccc(C(=O)NC5CCCCC5)cc4n3c2=O)cc1C (stereo not given)	i
CCN1CCC2(CCC1=O)CN(c1ncnc3c1CCC3)CCN2C (stereo not given)	i
COc1ccc2c(c1)c(NC(C)=O)c1n2CC(C)(C(=O)NC2CCCCC2)N(C2CCCC2)C1=O (stereo not given)	i
O=C1NC(=O)C(c2cn(-c3ccccc3)nc2-c2ccc(F)cc2)N1 (stereo not given)	i
CC(C)CCN1C(=O)c2cc3sccc3n2CC1(C)C(=O)NC1CCCCC1C (stereo not given)	i
CCCn1c(=O)c2cc(Cl)ccc2n2c(SCC(=O)NCc3ccccc3)nnc12	i
COc1ccccc1CN1C(=O)c2cc3sccc3n2CC1(C)C(=O)NC1CCCCC1 (stereo not given)	i
Cc1cc(C)n(Cc2cccc(C(=O)N3Cc4ccccc4C(O)C3)c2)n1 (stereo not given)	i
COc1ccc(Cn2c3c(c(=O)n2Cc2ccccc2)CCN(C(=O)CCc2cccnc2)C3)cc1	i
O=C(CCCc1ccccc1)N1CCCCCC1c1nc(C2CC2)no1 (stereo not given)	i
Cc1nnc2n(-c3cccc(F)c3)c(=O)c3ccc(C(=O)NCc4ccc(Cl)cc4)cc3n12	i
COc1ccc(CCNC(=O)c2ccc3c(=O)nc4c(-c5ccccc5)n[nH]n4c3c2)cc1OC	?
Cc1cccc(Cn2nc3n(C)c(=O)c4ccc(C(=O)NCC(C)C)cc4n3c2=O)c1	i
COc1ccc(S(=O)(=O)c2nnn3c2nc(Nc2cccc(C)c2)c2ccccc23)cc1	i
COc1cccc2sc(NC(=O)c3ccc4c(c3)OCCN(C3CCC3)C4)nc12	i
CN(Cc1ccccc1C(F)(F)F)CC1CCCCC1	i
CCCCN1C(=O)c2cc(C(=O)NCCC)nn2CC1(C)C(=O)NC1CCCC1 (stereo not given)	i
C[N+]1(C)[C@@H]2C[C@@H](OC(=O)C(O)(c3cccs3)c3cccs3)C[C@H]1[C@@H]1O[C@@H]12	i
COc1cccc(C2=NOC(C(=O)NCc3ccccn3)C2)c1 (stereo not given)	i
COc1ccc(CN2CCN(C(=O)CCNC(=O)c3ccc(C(C)(C)C)cc3)CC2)cc1	i
Cc1ccc(C)c(N2CCN(S(=O)(=O)c3ccc4[nH]c5c(c4c3)CCCC5)CC2)c1	i
COc1c(C)c(OCC(O)C(C)(C)O)cc2c1COC2=O (stereo not given)	i
NS(=O)(=O)c1cc2c(cc1Cl)NC(C1CC3C=CC1C3)NS2(=O)=O (stereo not given)	i
CCCn1c(=O)c2ccccc2n2c(=O)n(Cc3ccccc3F)nc12	i

# Next part (3 carried over from the part before).
SMILES	Methyltransferases
COc1c(C)c(OCC(O)C(C)(C)O)cc2c1COC2=O (stereo not given)	i
NS(=O)(=O)c1cc2c(cc1Cl)NC(C1CC3C=CC1C3)NS2(=O)=O (stereo not given)	i
CCCn1c(=O)c2ccccc2n2c(=O)n(Cc3ccccc3F)nc12	i
Cc1ccc(-c2cc3n(n2)CCCN(C(=O)CCN2C(=O)NC(C)(C)C2=O)C3)cc1C	i
COc1ccc(OC)c(S(=O)(=O)N2CCCCC2c2nc(-c3cccnc3)n[nH]2)c1 (stereo not given)	i
CCOc1ccccc1NC(=O)N1Cc2c(sc3c2CCCC3)-n2cccc2C1c1ccccc1 (stereo not given)	i
CC(C)C(=O)SCCCCCCC(=O)Nc1nc(-c2ccccc2)cs1	?
CC1CCN(S(=O)(=O)c2ccc3c(ccn3CCC(=O)NCc3ccc(N(C)C)cc3)c2)CC1	i
COc1ccc(N2C(=O)c3cc(C(C)C)nn3CC2(C)C(=O)NC2CCCCCC2)cc1 (stereo not given)	i
COc1cc2nc(N3CCN(C(=O)c4ccco4)C4CCCCC43)nc(N)c2cc1OC (stereo not given)	+
CC(C)NC(=O)N[C@H]1CCN(C(=O)c2cnccn2)[C@@H]1C(=O)N[C@@H](CCCNC(=O)c1cnccn1)C(N)=O	i
COc1c/c(=C2\C=c3ccccc3=N2)[nH]/c1=C\c1[nH]c(C)cc1C	?
COc1ccc(C(=O)N2CC(=O)N(c3ccc(C)cc3)CC2C)c(OC)n1 (stereo not given)	i
COc1cc(Cl)c(CN2CCC[C@H]2C(=O)O)cc1OC	i
O=C(CSc1nnc2n(Cc3ccc(F)cc3)c(=O)c3ccccc3n12)Nc1cc(F)ccc1F	i
CC(C)Oc1ccc(CN2C(=O)c3cc4occc4n3CC2(C)C(=O)NC2CCCCC2C)cc1 (stereo not given)	i
CN1CCN(CCCN2c3ccccc3Sc3ccc(Cl)cc32)CC1	i
CCOC(=O)c1cc2n(n1)CC(C)(C(=O)NC1CCCC1)N(Cc1ccc(OCC)cc1)C2=O (stereo not given)	i
O=[S+]([O-])(c1ccccc1)N1CC(Oc2ccc(F)c(F)c2)C1	i
CCOC(=O)c1cnc2ccc(C)cc2c1Nc1cccc(C)c1	i
COc1ccccc1CNC(=O)C1c2c(n(C)c3ccccc23)SCC(=O)N1c1ccc(OC)c(OC)c1 (stereo not given)	i
CC(C)CC1OC(=O)C2CCCN2C(=O)CCNC(=O)C(Cc2ccccc2)NC(=O)C(C(C)C)N(C)C(=O)C(C(C)C)N(C)C1=O (stereo not given)	i
Cc1ccc(C(C)NC(=O)CN2C(=O)C3(CCNCC3)Nc3ccccc32)cc1 (stereo not given)	i
O=S(=O)(c1ccccc1)c1nnn2c1nc(NCc1ccccc1)c1cc(Cl)ccc12	i
CC(C)CCn1c(=O)c2ccc(C(=O)NC3CCCC3)cc2n2c(=O)n(C)nc12	i
O=C(/C=C/c1ccccc1)OCC1=CC[C@@H]2C(C(=O)O)=CO[C@@H](O[C@@H]3O[C@H](CO)[C@@H](O)[C@H](O)[C@H]3O)[C@H]12	i
CC1(C)CC[C@]2(C(=O)O[C@@H]3O[C@H](CO)[C@@H](O)[C@H](O)[C@H]3O)CC[C@]3(C)C(=CCC4[C@@]5(C)C[C@H](O)[C@H](O[C@@H]6OC[C@@H](O)[C@H](O)[C@H]6O)[C@@](C)(CO)C5CC[C@]43C)C2C1 (stereo not given in full)	i
Cc1cc2c(cc1S(=O)(=O)Nc1cccc(Cl)c1C)n(C)c(=O)n2C	i
COc1ccc(CC(=O)N[C@H]2[C@H](O)[C@H](O)C[C@@H]2c2cccnc2)cc1	i
CC(C)c1noc(Cn2nc(-c3ccccc3)c3ccccc3c2=O)n1	i
O=C(Cn1nc2n(Cc3ccccc3)c(=O)c3ccccc3n2c1=O)c1cccc(Cl)c1	i
COc1cccc(CN2C(=O)c3nc4ccccc4n3CC2(C)C(=O)NC2CCCCC2C)c1OC (stereo not given)	i
Nc1ccc(-c2ccnc(NCCCNC(=O)c3c(Cl)cccc3Cl)n2)cc1	?
CCC1c2ccc(C)n2CCN1C(=O)Nc1cc(C)ccc1OC (stereo not given)	i
Cn1ccc2cc(CCC(=O)NCc3ccncc3)ccc21	i
Cc1ccc(CNC(=O)C2(C)Cn3cnc(C(=O)Nc4ccc(Cl)cc4F)c3C(=O)N2C2CC2)cc1 (stereo not given)	i
CC(C)NC(=O)c1ccc2c(=O)n(Cc3ccccc3)c3nnc(SCc4ccccc4)n3c2c1	i
COc1ccc(OC)c2c1cc1n2CC(C)(C(=O)NC2CCCC2)N(Cc2ccccc2)C1=O (stereo not given)	i
O=C1NC2(CN(C(=O)c3ccccc3)C2)Oc2ccccc21	i
O=C(Cn1c(=O)oc2cc(S(=O)(=O)NC3CCCC3)ccc21)NCc1cccs1	i
C=CCCC(=O)N1CCOc2c(O)cc(-c3nc4ccccc4s3)cc2C1	?
COc1ccccc1-c1ccnc(N[C@H]2CO[C@H]3[C@@H]2OC[C@@H]3NS(=O)(=O)c2cccs2)n1	i
COC(=O)c1cccc(Nc2ncnc3ccc(C)cc23)c1	i
CCCn1c(=O)c2ccc(C(=O)NCC(C)C)cc2n2c(=O)n(Cc3ccccc3C)nc12	i
CCn1cc(S(=O)(=O)N2CCC(Cc3nncn3C)C2)cn1 (stereo not given)	i
CN1CCN(C(=O)c2cc3n(n2)CC(C)(C(=O)NCc2ccccc2)N(C)C3=O)CC1 (stereo not given)	i
Cc1cccc(CSc2nnc3n(CCCOC(C)C)c(=O)c4ccccc4n23)c1	i
CCCOc1ccc(CN2C(=O)c3cc4sccc4n3CC2(C)C(=O)NC2CCCCCC2)cc1 (stereo not given)	i
Cc1ccc(CNC(=O)c2ccc3c(c2)CN(Cc2scnc2C)CCO3)cc1	i
O=C1N(CC2CC2)CCCC1(O)CNCc1cc(F)cc(F)c1 (stereo not given)	i
CCCCN1C(=O)c2cc(C(=O)NCCCc3ccccc3)nn2CC1(C)C(=O)NC1CCCC1 (stereo not given)	i
Cc1ccc(Cl)cc1NC(=O)CSc1nnc2[nH]c(=O)c(C)nn12	i
COc1ccc(OC)c(CNS(=O)(=O)c2ccc3[nH]c(=O)[nH]c3c2)c1	i
CC1(C)CC2C3=CCC4C5(C)CCC(OC6OC(C(=O)O)C(O)C(O)C6OC6OC(CO)C(O)C(O)C6OC6OC(CO)C(O)C(O)C6O)C(C)(CO)C5CCC4(C)C3(C)CCC2(C)C(OC2OCC(O)C(OC3OC(CO)C(O)C(O)C3O)C2O)C1O (stereo not given)	i

# Among those listed so far, 10 have fluorine.
SMILES	Methyltransferases
O=C1CN(C(=O)c2cccc(C(F)(F)F)c2)CC(OCc2cccnc2)CN1CC1CCOCC1 (stereo not given)	i
O=C(NC1CCCCC1)c1ccc2c(=O)nc3c(-c4cccc(F)c4)n[nH]n3c2c1	i
O=C1NC(=O)C(c2cn(-c3ccccc3)nc2-c2ccc(F)cc2)N1 (stereo not given)	i
Cc1nnc2n(-c3cccc(F)c3)c(=O)c3ccc(C(=O)NCc4ccc(Cl)cc4)cc3n12	i
CN(Cc1ccccc1C(F)(F)F)CC1CCCCC1	i
CCCn1c(=O)c2ccccc2n2c(=O)n(Cc3ccccc3F)nc12	i
O=C(CSc1nnc2n(Cc3ccc(F)cc3)c(=O)c3ccccc3n12)Nc1cc(F)ccc1F	i
O=[S+]([O-])(c1ccccc1)N1CC(Oc2ccc(F)c(F)c2)C1	i
Cc1ccc(CNC(=O)C2(C)Cn3cnc(C(=O)Nc4ccc(Cl)cc4F)c3C(=O)N2C2CC2)cc1 (stereo not given)	i
O=C1N(CC2CC2)CCCC1(O)CNCc1cc(F)cc(F)c1 (stereo not given)	i

# High-throughput results as filed in PubChem BioAssay.
